Assay outcomes: PubChem, Southern Research Institute
Mtb growth – Mycobacterium tuberculosis H37Rv growth inhibition, putative kinase inhibitor library, confirmatory dose response (AID 2842); M. tuberculosis H37Rv growth inhibition; higher % means a stronger effect; some inactives read as strong as hits; one-dose inhibition, % at 10 µg/mL; IC90 in µg/mL for titrated hits; hit rate 5.2% among 24,000;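 active means confirmed in a dose series; about a fifth of its hits are not listed in these tables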;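 further: bacteria incubated one week before Alamar blue readout; 0% = bacteria only wells and 100% = bacteria with high antibiotic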
Numbers without * were called inactive. This is a subset; count on the stated rates, not on these rows.

SMILES | Mtb growth
CC(C)(C)NC(=O)Nc1nnc(SCC(=O)N2CCCC2)s1 | -11%
Cc1ccc(Cl)cc1-n1ncc2c(NNC(=O)c3cccc(Cl)c3)ncnc21 | -5%
CC(=O)c1sc(NC(=O)c2cccc(Br)c2)nc1C | 7%
CCOC(=O)c1nn(-c2ccc(C)cc2)c(=O)c2c(NC(=O)C(C)Oc3ccccc3)scc12 (stereo unspecified) | 18%
Cc1cc(OC(C)C(=O)O)c2c3c(c(=O)oc2c1)CCCC3 (stereo unspecified) | -28%
Cc1nc2c(ccc3nc(NC(=O)CCCS(=O)(=O)c4ccccc4)sc32)s1 | 4%
CC(C)c1ccc(-c2csc(NC(=O)c3ccc(S(=O)(=O)N4CCCC4)cc3)n2)cc1 | 1%
CSc1nnc(NC(=O)Cc2cccs2)s1 | 3%
O=C(Nc1ccc(-c2nc3cccnc3s2)cc1)c1ccc(Br)o1 | 9%
Cc1ccc2cc(CCNC(=O)c3ccc(Br)o3)c(=O)[nH]c2c1 | 16%
Nc1nc(SCC(=O)Nc2cccc(C(F)(F)F)c2)[nH]c(=O)c1NC(=O)c1ccc(F)cc1 | -10%
COc1cccc(NC(=S)NCCc2cc3c(OC)ccc(OC)c3[nH]c2=O)c1 | 7%
O=c1cnn(C2OCC(O)C(O)C2O)c(=O)[nH]1 (stereo unspecified) | 1%
COc1ccc(-n2c(=O)[nH]c3c(C(N)=O)nc(-c4cccc(C)c4)nc32)cc1OC | -9%
Cc1cc(NC(=O)CSc2ccc3nnc(-c4ccc(Cl)cc4)n3n2)no1 | -15%
CC1(C)CC(=O)c2cc3c(N)c(C(=O)Nc4ccc(F)cc4)sc3nc2C1 | -1%
CC(NC(=O)CC1S/C(=N/N=C/c2ccco2)NC1=O)C(=O)O (stereo unspecified) | -9%
Nc1nc(SCC(=O)Nc2ccc(Cl)cc2)[nH]c(=O)c1NC(=O)c1ccc(C(F)(F)F)cc1 | -9%
CCc1cccc(CC)c1NC(=O)COC(=O)c1ccc2c(c1)C(=O)N(c1ccc(C)cc1C)C2=O | 9%
CCc1nnc(NC(=O)CSc2nc(C(C)C)nc3c2c(=O)n(C)c(=O)n3C)s1 | -6%

Part of the list above, with each value named.
> CC(C)c1ccc(-c2csc(NC(=O)c3ccc(S(=O)(=O)N4CCCC4)cc3)n2)cc1
  Mtb growth: 1%
> CSc1nnc(NC(=O)Cc2cccs2)s1
  Mtb growth: 3%

Carrying on:
SMILES | Mtb growth
C=CCn1c(CSc2nc(N)cc(N)n2)n[nH]c1=S | -8%
O=C(Nc1ccc([N+](=O)[O-])cc1)c1oc2ccccc2c1NC(=O)c1c(F)cccc1Cl | 14%
CCOC(=O)C1CCN(c2nc3c(-c4cccc(C(F)(F)F)c4)nnn3c3ccccc23)CC1 | -2%
CCOC(=O)c1nn(-c2ccc(OC)cc2)c(=O)c2c(NC(=O)c3ccc(S(=O)(=O)N4CCOCC4)cc3)scc12 | -10%
O=C(Nc1c(C(=O)Nc2ccc3c(c2)OCCO3)oc2ccccc12)c1cc(Cl)ccc1[N+](=O)[O-] | 0%
Cc1ccc(C(=O)c2cn(Cc3ccccc3F)c3cc4c(cc3c2=O)OCCO4)cc1 | 2%
COc1ccc(CCNC(=O)CSc2nc3sc4c(c3c(=O)[nH]2)CCC4)cc1OC | -18%
COC(=O)C1CCN(C(c2ccc(Cl)c(Cl)c2)c2sc3nc(C)nn3c2O)CC1 (stereo unspecified) | 9%
NC(=O)c1ccsc1NC(=O)c1cccc(F)c1 | 24%
O=C(CSc1ncnc2c1cnn2-c1ccc(Cl)cc1)NCCc1ccccc1 | -2%
O=C(c1ccccc1)c1sc(NC(=O)C2CCCCC2)nc1-c1ccccc1 | 9%
Cc1cc(C)n(C)c(=O)c1C(=O)O | -5%
O=C(Nc1c(C(=O)Nc2ccc(F)cc2)oc2ccccc12)c1ccc(Br)o1 | -2%
COc1ccc(Cn2cc(C(=O)c3ccc(F)cc3)c(=O)c3cc(OC)c(OC)cc32)cc1 | 0%
CCOC(=O)c1nn(-c2ccc(Cl)cc2)c(=O)c2c(NC(=O)CSCc3ccccc3)scc12 | 7%
CC(C)Cc1cc(C(=O)O)n[nH]1 | -12%
CC(=O)N1N=C(c2c(-c3ccccc3)c3cc(Cl)ccc3[nH]c2=O)CC1c1nc2ccccc2n1C(C)=O (stereo unspecified) | 21%
CC(=O)Nc1nnc(-c2ccc(C)cc2C)o1 | 24µg/mL*
Cc1ccc(-c2nnc(NC(=O)c3ccc([N+](=O)[O-])cc3)o2)c(C)c1 | 41%
Cc1nnc(SCC(=O)Nc2ccc(Cl)c(Cl)c2)[nH]c1=O | 64%
O=C1CN(C(=O)c2cccc(F)c2)C(c2ccc(F)cc2)c2cc(Br)ccc2N1 (stereo unspecified) | 32µg/mL*
O=C(COc1ccc(Cl)cc1Cl)Nc1ccc(-c2ccc3nncn3n2)cc1 | -7%
COc1ccc(C(=O)Nc2c(N)nc(SCC(=O)Nc3ccc(Cl)c(Cl)c3)[nH]c2=O)cc1OC | 2%
N#C/C(=C\Nc1ccccc1F)c1nc(-c2ccc([N+](=O)[O-])cc2)cs1 | 4%
COc1ccc(OC)c2[nH]c(=O)c(CCNC(=O)c3cccs3)cc12 | 14%
CCOC(=O)c1ccc(NC(=O)CSc2nc3sc(C(=O)O)c(C)c3c(=O)[nH]2)cc1 | -34%
O=c1[nH]c2ccccc2nc1/C=C/c1ccccc1 | 2%
Cc1cc2nnc(SCC(=O)Nc3ccc4c(c3)OCO4)n2c2ccccc12 | -1%
COc1ccc(-n2nnc3c(SCC(N)=O)ncnc32)cc1 | 5.7µg/mL*
CCCn1c(N2CCN(Cc3ccc(Cl)cc3)CC2)nc2c1c(=O)[nH]c(=O)n2C | -1%
CCc1ccc(N2C(=O)CC(Sc3ncccc3C(=O)O)C2=O)cc1 (stereo unspecified) | -7%
Cc1nnc(Nc2cc(Cl)cc(Cl)c2)[nH]c1=O | -15%
O=C(Nc1nnc(-c2ccccc2Cl)s1)c1ccc(N2C(=O)CCC2=O)cc1 | 0%
COc1ccc(OC(=O)N(C)c2ccc(C)cc2)cc1 | 16%
CCOC(=O)C1=C(c2ccccc2)NC(=O)NC1c1ccc(OC)c(OC)c1 (stereo unspecified) | 6%
CCC(Sc1ccc2nnc(-c3ccc(OC)cc3)n2n1)C(=O)OC (stereo unspecified) | 0%
Cc1ccccc1-c1nnc(NC(=O)c2ccccc2[N+](=O)[O-])s1 | -10%
Cc1cc(NS(=O)(=O)c2ccc(NC(=O)COc3ccc(C(C)C)cc3)cc2)no1 | 51%
CCOc1ccccc1NC(=O)COC(=O)c1ccc2c(c1)C(=O)N(c1ccccc1Cl)C2=O | 15%
O=C(c1ccc(NC2=C(Cl)C(=O)N(Cc3ccccc3)C2=O)cc1)N1CCCCCC1 | 11µg/mL*
Nc1nc(SCC(=O)NCc2ccc3c(c2)OCO3)[nH]c(=O)c1NC(=O)c1ccc(F)cc1 | -8%
Cc1ccccc1-c1nnc(NC(=O)c2ccc(Cl)cc2)s1 | 5%
O=c1[nH]c(SCc2nc3c(cnn3-c3ccccc3)c(=O)[nH]2)nc2ccccc12 | -3%
COc1ccc(C(=O)Nc2c(N)nc(SCc3ccc([N+](=O)[O-])cc3)[nH]c2=O)cc1OC | -12%
CCN(C1CCS(=O)(=O)C1)S(=O)(=O)c1ccc(F)cc1 (stereo unspecified) | 0%
Cn1c(=O)[nH]c(=O)c2c1nc(NCCCn1ccnc1)n2Cc1cccc2ccccc12 | -15%
COc1ccc(C(=O)NCC(c2ccco2)N2CCc3ccccc3C2)cc1 (stereo unspecified) | 61%
Cn1c(=O)c2c(nc(N3CCN(Cc4ccccc4)CC3)n2CCSc2nc3ccccc3o2)n(C)c1=O | 1%
CCCS(=O)(=O)NC1CC(=O)N(c2ccc(OC)c(OC)c2)C1 (stereo unspecified) | -9%
Cc1nc2sc(C(c3ccccc3F)N3CCN(C(=O)c4ccco4)CC3)c(O)n2n1 (stereo unspecified) | -1%
Cc1cccc(Cn2cc3c(-c4ccc(Cl)cc4)nnc-3c3cc4c(cc32)OCCO4)c1 | 22%
O=C(Nc1ncc(S(=O)(=O)c2ccc([N+](=O)[O-])cc2)s1)c1ccc(F)cc1 | -6%
CCS(=O)(=O)c1ccc(C(=O)Nc2nc(C)c(C(C)=O)s2)cc1 | -3%
O=C(c1ccco1)N1CCN(C(c2ccccc2)c2sc3ncnn3c2O)CC1 (stereo unspecified) | 2%

Structures listed so far containing a Cl atom, in the order listed:
SMILES | Mtb growth
Cc1ccc(Cl)cc1-n1ncc2c(NNC(=O)c3cccc(Cl)c3)ncnc21 | -5%
Cc1cc(NC(=O)CSc2ccc3nnc(-c4ccc(Cl)cc4)n3n2)no1 | -15%
Nc1nc(SCC(=O)Nc2ccc(Cl)cc2)[nH]c(=O)c1NC(=O)c1ccc(C(F)(F)F)cc1 | -9%
O=C(Nc1ccc([N+](=O)[O-])cc1)c1oc2ccccc2c1NC(=O)c1c(F)cccc1Cl | 14%
O=C(Nc1c(C(=O)Nc2ccc3c(c2)OCCO3)oc2ccccc12)c1cc(Cl)ccc1[N+](=O)[O-] | 0%
COC(=O)C1CCN(C(c2ccc(Cl)c(Cl)c2)c2sc3nc(C)nn3c2O)CC1 (stereo unspecified) | 9%
O=C(CSc1ncnc2c1cnn2-c1ccc(Cl)cc1)NCCc1ccccc1 | -2%
CCOC(=O)c1nn(-c2ccc(Cl)cc2)c(=O)c2c(NC(=O)CSCc3ccccc3)scc12 | 7%
CC(=O)N1N=C(c2c(-c3ccccc3)c3cc(Cl)ccc3[nH]c2=O)CC1c1nc2ccccc2n1C(C)=O (stereo unspecified) | 21%
Cc1nnc(SCC(=O)Nc2ccc(Cl)c(Cl)c2)[nH]c1=O | 64%
O=C(COc1ccc(Cl)cc1Cl)Nc1ccc(-c2ccc3nncn3n2)cc1 | -7%
COc1ccc(C(=O)Nc2c(N)nc(SCC(=O)Nc3ccc(Cl)c(Cl)c3)[nH]c2=O)cc1OC | 2%
CCCn1c(N2CCN(Cc3ccc(Cl)cc3)CC2)nc2c1c(=O)[nH]c(=O)n2C | -1%
Cc1nnc(Nc2cc(Cl)cc(Cl)c2)[nH]c1=O | -15%
O=C(Nc1nnc(-c2ccccc2Cl)s1)c1ccc(N2C(=O)CCC2=O)cc1 | 0%
CCOc1ccccc1NC(=O)COC(=O)c1ccc2c(c1)C(=O)N(c1ccccc1Cl)C2=O | 15%
O=C(c1ccc(NC2=C(Cl)C(=O)N(Cc3ccccc3)C2=O)cc1)N1CCCCCC1 | 11µg/mL*
Cc1ccccc1-c1nnc(NC(=O)c2ccc(Cl)cc2)s1 | 5%
Cc1cccc(Cn2cc3c(-c4ccc(Cl)cc4)nnc-3c3cc4c(cc32)OCCO4)c1 | 22%
